Screens deposited in PubChem by several laboratories.
GALR2 ag = activates the human galanin receptor 2; O43603; GALR2-expressing cells, agonist activation read-out; activation, %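 (tested at 5 µM)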; hit rate 0.48% among 140,000;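 active means above mean plus 3 SD of all compounds, about 5% in these data, not always enough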;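 further: 0% = vehicle buffer wells and 100% = reference agonist at full effect; tested in CHO reporter cells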
INS promoter inh = TRM-6 insulin promoter activity inhibition; TRM-6 cells (human fetal islet line), insulin promoter-eGFP reporter, imaging; reporter expression induced with tamoxifen; inhibition, % at 2 µM; hit rate 0.9% among 130,000;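 active means inhibition above the mean plus 3 SD, with well images judged a real hit on visual review, cut at about 60% in these data, passing the limit was not always enough; inconclusive means inhibition over the cutoff but images rejected on review; inactive means inhibition not above the cutoff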
HSV augment = HSV replication enhancement; maximum fold increase; hit rate 0.005% among 220,000; HSV replication augmentation in cells, fold increase;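 active means peak rise of 1.5-fold or more in the series; inconclusive means self-fluorescent or not available for retest; tested in PC3 cells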;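 further: first round at 10 µM; read as green reporter fluorescence; hits show the peak of a series up to 25 µM; 1 = signal of infected wells without compound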
RGS16-Gao = RGS16-Galphao interaction regulator (human) | bead-based flow cytometry RGS16-Galphao binding, fluorescence; actives lie on both sides | binding response (% of control), % at 10 µM | hit rate 0.38% among 220,000 | AID 1441;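 active means below 25% or above 175%, edge rows of some plates excepted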;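 further: Galphao activated by GDP with aluminum fluoride before binding; 100% = wells without compound and 0% = beads without RGS; some results beyond the cut were filed as inactive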
PKD1 inh = inhibitors of human PKD1 kinase | Q15139 | PKD1 kinase fluorescence polarization assay | inhibition, %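 (about 10 µM by stock and volumes)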 | hit rate 0.056% among 200,000;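 active means inhibition of 50% or more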;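 further: controls were vehicle for no effect and a reference inhibitor for full effect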
Target sequence (Q15139 whole entry, looked up): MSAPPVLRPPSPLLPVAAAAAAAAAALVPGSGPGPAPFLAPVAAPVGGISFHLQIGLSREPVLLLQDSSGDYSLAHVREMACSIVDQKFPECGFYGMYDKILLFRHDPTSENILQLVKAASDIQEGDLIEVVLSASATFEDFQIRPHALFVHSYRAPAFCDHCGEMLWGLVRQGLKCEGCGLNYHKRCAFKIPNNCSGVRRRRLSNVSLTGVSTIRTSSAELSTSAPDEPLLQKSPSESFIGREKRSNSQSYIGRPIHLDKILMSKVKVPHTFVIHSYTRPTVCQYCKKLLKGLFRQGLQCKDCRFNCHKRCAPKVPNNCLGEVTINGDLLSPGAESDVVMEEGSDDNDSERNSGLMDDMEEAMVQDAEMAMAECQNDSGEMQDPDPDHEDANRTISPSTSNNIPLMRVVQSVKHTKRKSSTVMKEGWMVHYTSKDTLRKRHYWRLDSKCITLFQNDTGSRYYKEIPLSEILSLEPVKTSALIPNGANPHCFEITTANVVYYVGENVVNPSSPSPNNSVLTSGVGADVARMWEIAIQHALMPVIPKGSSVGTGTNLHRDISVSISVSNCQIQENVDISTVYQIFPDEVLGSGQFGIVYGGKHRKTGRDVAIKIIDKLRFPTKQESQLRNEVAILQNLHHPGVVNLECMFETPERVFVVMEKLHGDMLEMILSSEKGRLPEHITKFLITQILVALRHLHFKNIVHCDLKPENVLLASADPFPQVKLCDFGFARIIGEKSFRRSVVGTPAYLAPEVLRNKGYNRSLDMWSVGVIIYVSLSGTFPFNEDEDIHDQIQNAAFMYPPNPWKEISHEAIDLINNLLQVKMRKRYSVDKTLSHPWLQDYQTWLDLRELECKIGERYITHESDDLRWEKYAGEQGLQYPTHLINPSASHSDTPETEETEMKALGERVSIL
INS promoter inh cell count = also measured in INS promoter inh; calls as there; normalized cell count, %; measured here: cell count, toxicity; reference of the scale not given here;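 cells exposed to compound for 48 h; stained nuclei by imaging scaled within each plate; lower means fewer cells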
HSV augment primary fold = second read-out of HSV augment, no call of its own (marks repeat the call); fold increase; compound at 10 µM; measured here: primary screen fold increase 10 uM; tested in PC3 cells;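 GFP signal in the first replicate; 1 = infected wells without compound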
Numbers without * were called inactive; i = inactive; u = inconclusive; x = no result given. The order is random; 1.1% or so of the library scored in one or more.

Each structure is followed by: GALR2 ag	INS promoter inh	INS promoter inh cell count	HSV augment	HSV augment primary fold	RGS16-Gao	PKD1 inh
- COCCNC(=O)c1cn(C)c(=O)c2cc(OC)c(OC)cc12
  -1.9	-48	61	i	1	111	-13
- CCOc1ccc(NC(=O)CN2CCN(S(=O)(=O)c3ccc(Cl)cc3)CC2)cc1
  -1.9	-45	108	i	0.85	92	-8
- O=C1c2cccc3cccc(c23)C(=O)N1CCN1CCN(CC(O)COc2ccccc2)CC1 (stereo unspecified)
  0.2	x	x	i	0.76	106	-7
- O=C1N/C(=N/NC(=O)c2cccc3ccccc23)S/C1=C\c1ccccc1OCc1ccccc1
  -0.7	x	x	i	0.94	91	11
- Cc1nn(C)cc1S(=O)(=O)N1CCCC(C(=O)O)C1 (stereo unspecified)
  x	x	x	i	0.9	104	2
- O=C(CSc1ccc2nnc(CCNS(=O)(=O)c3ccccc3)n2n1)Nc1nc2ccccc2s1
  -2.2	-40	53	i	0.95	63	-1
- Cc1ccccc1N1CCN(C2=NC(=O)/C(=C/c3cn[nH]c3-c3ccccc3)S2)CC1
  -1.6	-12	86	i	0.95	205	0
- CCN1CCN(C(=O)c2ccccc2NS(=O)(=O)c2ccc(Cl)cc2)CC1
  x	x	x	i	0.99	102	3
- Cc1ccc([N+](=O)[O-])cc1NC(=O)C(Sc1ccccc1)c1ccccc1 (stereo unspecified)
  -2.9	-80	68	i	0.82	113	-2
- CN(C)S(=O)(=O)c1ccc(C(=O)Nc2cc(S(=O)(=O)Nc3ccccc3Cl)ccc2N2CCCCC2)cc1
  -2.5	15	84	i	0.91	105	4
- COc1ccc(N=C2S/C(=C\c3ccc(OCC(=O)O)cc3)C(=O)N2CCc2c[nH]c3ccccc23)cc1
  x	x	x	i	1.1	101	-1
- O=S(=O)(Nc1ccc2ccccc2c1)c1ccccc1
  -0.7	53	65	i	0.93	117	-6
- O=C(N/N=C/c1ccc[nH]1)c1ccc(Cl)cc1
  0.3	-43	104	i	0.7	114	-3
- Cc1cccc(CC2CC(=O)N(c3ncccn3)C2=O)c1 (stereo unspecified)
  -0.2	10	116	i	0.94	75	1
- CCn1c(=O)n(CCOC)c(=O)c2c3c(sc21)CCCC3
  0.8	-25	110	i	0.86	103	2
- O=C(Oc1ccc(Cl)cc1)N1CCCCC1
  0.3	-3	146	i	0.62	100	-5
- COc1cccc(/C=C2/SC(=S)N(CC(=O)Nc3nnc(C)s3)C2=O)c1
  -1.1	-30	51	i	0.98	112	-5
- COc1cccc(C(=O)OCCN(C)C(C)(C)C)c1
  -1.5	2	87	x	x	105	-2
- C=C(C)CNC(=S)NNC(=O)c1ccncc1
  x	x	x	i	0.92	103	-2
- N#Cc1ccccc1CSc1nnc(Cc2ccccc2)o1
  x	-45	120	i	1	102	-11
- NNS(=O)(=O)c1ccc(N2CCCC2=O)c([N+](=O)[O-])c1
  x	-7	66	i	0.99	124	0
- Cc1ccc(N(CC(=O)Nc2c(C)n(C)n(-c3ccccc3)c2=O)S(C)(=O)=O)c(C)c1
  x	x	x	i	1.2	100	-5
- CCOC(=O)CCC(NC(=O)CC(=O)NC(CCC(=O)OCC)C(=O)OCC)C(=O)OCC (stereo unspecified)
  x	x	x	i	0.98	101	-14
- CCOC(=O)c1cc(C(=O)OCC)c2ccccn2c1=O
  15*	-11	131	i	0.92	97	4
- Nc1cc(=O)[nH]c(SCC(=O)N2CCc3ccccc3C2)n1
  -2.6	23	150	i	0.93	96	-6
- CCc1cc(CNC(=O)CC2C(=O)NCCN2Cc2c(F)cccc2Cl)on1 (stereo unspecified)
  x	x	x	i	1.8	91	2
- CS(=O)(=O)N(CC(=O)NCc1ccncc1)c1cc(Cl)ccc1Cl
  x	x	x	i	0.88	100	-3
- Clc1ccc(-c2nnc(-c3ccccc3)nc2N2CCSCC2)cc1
  -1.7	5	98	i	0.94	101	-2
- CC(C)C(OC(=O)c1cccc(S(=O)(=O)NCC(F)(F)F)c1)C(=O)NC(N)=O (stereo unspecified)
  x	11	177	i	0.93	99	7
- COc1ccc(C2C(C(C)=O)=C(O)C(=O)N2c2nccs2)cc1 (stereo unspecified)
  -0.3	-5	130	i	1.1	107	0
- c1ccc(N2CCN(c3nc4cc5c(cc4s3)OCCO5)CC2)cc1
  -1.8	x	x	i	0.73	97	-10
- O=C(NC1CC1)c1cc(Cl)ccc1[N+](=O)[O-]
  -2.3	3	105	i	1.1	104	-2
- O=C(CSc1nc2cc3c(cc2c(=O)n1CCC1=CCCCC1)OCO3)NCc1ccco1
  -1.8	6	135	x	x	97	3
- OCC1(CCOc2ccccc2)CCN(CC2=Cc3cc(Cl)ccc3OC2)CC1
  x	x	x	i	1.1	88	-5
- COc1cccc(-c2nc(-c3ccccc3)[nH]c(=O)c2C#N)c1
  -0.7	x	x	x	x	96	1
- O=[N+]([O-])c1cc2c(c(CSc3nnnn3-c3ccc(O)cc3)c1)OCOC2
  0.3	-29	79	i	1.1	101	-11
- CC1C/C(=N/NC(=O)c2cccs2)CC(C)(C)C1 (stereo unspecified)
  -2.9	-7	112	i	1.1	101	-10
- CC(C)(C)C(=O)CC1(O)C(=O)N(Cc2ccc(Cl)cc2)c2ccccc21 (stereo unspecified)
  -1.3	11	116	i	0.77	104	8
- Cc1ccc(-c2csc3ncnc(-n4nc(C)cc4N)c23)cc1
  -4.3	x	x	i	0.88	98	-5
- CCOC(=O)C1CCN(C(=O)c2ccccc2NC(C)=O)CC1
  -3.3	6	116	i	0.94	96	-1

Single records (already shown). Order of values: GALR2 ag, INS promoter inh, INS promoter inh cell count, HSV augment, HSV augment primary fold, RGS16-Gao, PKD1 inh
O=C(NC1CC1)c1cc(Cl)ccc1[N+](=O)[O-] reads -2.3, 3, 105, i, 1.1, 104, -2
COc1cccc(-c2nc(-c3ccccc3)[nH]c(=O)c2C#N)c1 reads -0.7, x, x, x, x, 96, 1

The listing continues.
Each structure is followed by: GALR2 ag	INS promoter inh	INS promoter inh cell count	HSV augment	HSV augment primary fold	RGS16-Gao	PKD1 inh
- C/C(=N/NC(=O)CN1CCN(Cc2ccccc2)CC1)c1ccc([N+](=O)[O-])cc1
  x	x	x	i	1.1	103	x
- Cc1c(C(=O)OC(C)C)nnn1-c1nonc1N
  -2.9	19	85	i	0.75	109	-4
- COc1ccc(C(=O)Nc2cc3c(oc2=O)CCCC3=O)cc1
  x	x	x	i	1	96	-1
- CCOc1ccc(N2CC(C(=O)Nc3ccc(OC)c(S(=O)(=O)N4CCCCC4)c3)CC2=O)cc1 (stereo unspecified)
  x	x	x	i	0.89	96	-3
- NC(=O)N/N=C/c1ccccc1OCC(=O)NCc1ccccc1
  -0.1	-13	120	i	1.1	105	3
- COC(=O)c1c(C)[nH]c(C(C)=O)c1C
  -0.9	x	x	i	0.92	108	-5
- COc1cccc(OC)c1C(=O)Oc1ccc2c(c1)O/C(=C\c1ccncc1)C2=O
  -0.2	17	95	i	0.94	91	-10
- CCc1[nH]nc2c1C(c1ccc(Br)s1)C(C#N)=C(N)O2 (stereo unspecified)
  0.6	-34	60	i	0.87	98	-3
- COc1ccccc1NC(=O)c1ccc(S(=O)(=O)N2CCCC2)cc1
  -2.6	x	x	i	0.7	103	-11
- Cc1ccccc1NCN1C(=O)C2CCC(C)(C1=O)C2(C)C (stereo unspecified)
  x	x	x	i	1.2	99	x
- CCN1CCN(c2cc(C)c3cc(NC(=S)N4CCN(c5ccc(F)cc5)CC4)ccc3n2)CC1
  x	x	x	i	0.72	98	-6
- Cc1cc(C(=O)COc2ccccc2C(N)=O)c(C)n1CC1CCCO1 (stereo unspecified)
  x	x	x	i	0.94	96	-1
- CCCOc1ccc(-c2nc(N)n[nH]2)cc1
  -0.9	-27	98	i	0.84	97	-6
- O=C(NCCOc1ccccc1)C1CCCCC1
  x	45	134	i	1.1	102	7
- CCOCCn1c(N2CCN(c3ccccc3)CC2)nc2c1c(=O)[nH]c(=O)n2C
  x	36	99	i	0.98	103	1
- CCOC(=O)c1c(CN2CCN(C)CC2)oc2ccc(OC)cc12
  -1.1	-138	65	i	0.73	95	-5
- Cc1nnc(SCC(=O)NCCN2C(=O)CSC2=O)n1-c1ccccc1
  x	x	x	i	1	103	-1
- Cn1c(=O)[nH]c(=O)c2c1nc([N+](=O)[O-])n2Cc1ccccc1
  x	x	x	i	0.61	95	x
- O=C(O)c1cc(-c2ccc(/C=C3/SC(=S)N(Cc4ccccc4)C3=O)o2)ccc1Cl
  x	x	x	u	x	95	2
- Cc1ccc(NC(=O)COC(=O)CCOc2ccccc2C)cc1
  x	x	x	i	1.1	101	-5

Some values from the list.
`Cc1c(C(=O)OC(C)C)nnn1-c1nonc1N` in HSV augment primary fold shows 0.75
`NC(=O)N/N=C/c1ccccc1OCC(=O)NCc1ccccc1` in RGS16-Gao shows 105
`C/C(=N/NC(=O)CN1CCN(Cc2ccccc2)CC1)c1ccc([N+](=O)[O-])cc1` in RGS16-Gao shows 103
`CCOC(=O)c1c(CN2CCN(C)CC2)oc2ccc(OC)cc12` in HSV augment primary fold shows 0.73
`COC(=O)c1c(C)[nH]c(C(C)=O)c1C` in RGS16-Gao shows 108
`COc1ccc(C(=O)Nc2cc3c(oc2=O)CCCC3=O)cc1` in HSV augment primary fold shows 1

Other structures follow.
Each structure is followed by: GALR2 ag	INS promoter inh	INS promoter inh cell count	HSV augment	HSV augment primary fold	RGS16-Gao	PKD1 inh
- O=C(COC(=O)/C=C/c1ccc(F)cc1)Nc1cccc(S(=O)(=O)N2CCCC2)c1
  x	x	x	i	0.98	110	-3
- CCCc1ccc(-c2cc(C(=O)NN3CCOCC3)c3ccccc3n2)cc1
  -2.5	23	92	i	0.98	100	-4
- Cc1cccc(C(=O)O/N=C2/CC3CCC2(C)C3(C)C)c1 (stereo unspecified)
  -1.6	57	120	i	0.86	100	-6
- CCCCN(CC)CCNC(=O)CNC(=O)Cn1ccc2ccccc2c1=O
  x	-8	134	i	0.98	102	-5
- CCC(NC(=O)c1ccc([N+](=O)[O-])cc1[N+](=O)[O-])c1ccccc1 (stereo unspecified)
  -2.0	-80	87	i	0.97	79	-4
- O=c1nc(/C=C/c2cc([N+](=O)[O-])ccc2Cl)cc(C(F)(F)F)[nH]1
  -0.8	33	93	i	0.86	103	-3
- CC(=O)NCCOc1cccc2ccccc12
  -0.3	6	133	i	0.94	96	-5
- Cc1ccc(C(=O)NCC(=O)OCC(=O)Nc2ccccc2[N+](=O)[O-])cc1
  -1.3	44	169	i	0.98	105	-8
- O=C(OC(C(=O)Nc1ccc(Cl)c(C(F)(F)F)c1)c1ccccc1)C1=COCCO1 (stereo unspecified)
  -1.6	-25	88	i	0.95	109	4
- N#C/C(=C1\CCCN1)c1nc(-c2ccccc2)cs1
  -1.6	x	x	i	1.1	97	-3
- CN1C(=O)CC(C(=O)O)SC1=Nc1ccc(F)cc1 (stereo unspecified)
  -0.2	-425	68	i	1	94	2
- CC(=O)Nc1sc(/C(C#N)=C/c2ccc(Cl)c(Cl)c2)nc1-c1ccc(C)cc1
  -0.1	-223	102	u	x	101	-3
- CN(C)Cc1nnnn1-c1ccccc1
  x	x	x	i	1.2	87	x
- CCn1c(SCC(=O)NCC2CCCO2)nnc1-c1ccc(S(=O)(=O)N2CCN(C)CC2)cc1 (stereo unspecified)
  x	17	69	i	1.3	97	-3
- COc1ccc(C2=NN(C(=O)c3cccc([N+](=O)[O-])c3)C(c3cccc([N+](=O)[O-])c3)C2)cc1 (stereo unspecified)
  -1.3	-79	36	i	1.1	100	-1
- Cc1cc(NC(=O)CSc2nc3ccccc3c(=O)n2CCCC(=O)NCc2ccccc2)n[nH]1
  -1.5	14	65	i	1.2	105	-1
- O=C(COC(=O)c1ccccc1C(=O)N1CCN(c2ccccc2)CC1)Nc1ccccc1
  x	-64	107	x	x	101	1
- CCCC(=O)N(CCc1ccccc1)Cc1nc2ccccc2c(=O)[nH]1
  -0.1	x	x	i	0.96	93	-1
- COc1ccc(C(=O)NC(CC(=O)O)c2cc([N+](=O)[O-])ccc2Cl)c(SC)c1 (stereo unspecified)
  x	0	124	i	0.95	109	-4
- C=CCNc1nc(N(c2ccccc2)c2ccccc2)nc(-n2ccnc2)n1
  -0.6	x	x	i	1	118	-6
- CCOCCCNC(=O)C(c1ccc(C)cc1)N(Cc1ccc2c(c1)OCO2)C(=O)c1cnccn1 (stereo unspecified)
  -0.7	53	91	i	1	113	-12
- Cc1ccccc1Oc1nc2c(C)cccn2c(=O)c1/C=C(\C#N)C(=O)NC1CCS(=O)(=O)C1 (stereo unspecified)
  x	x	x	i	0.84	96	x
- CCOC(=O)C(CC)Sc1nnc2n1C(C)(C)Cc1ccccc1-2 (stereo unspecified)
  -2.7	-6	99	i	0.88	102	6
